T. gondii – T. gondii ME49Luc in HeLa cells, luciferase assay, 72 h, no IFN-y (AID 1259421); T. gondii ME49Luc in HeLa, luciferase, 72 h, no IFN-y; hits give low values; reference of the scale and settings of repeat entries not given here; many of its hits are not listed in these tables; activity change, negative = inhibition, %; 9.6% of 6,400 active;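 active means activity change below -70%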;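 further: about 20 µM from a 10 mM stock diluted 500-fold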
The depositor's hits bear a star; & = joins results of further samples; ! = not confirmed by another sample. Not all compounds are listed; the hit share may differ from the screen's.

Preview (two entries):
> OC(c1ccccc1)(c1ccccc1)C1CCNCC1
- T. gondii = 36
> CC1=C[C@H]2[C@]3(O)[C@H](C)[C@@H](O)[C@@]4(O)[C@H]([C@@H]3C=C(CO)C[C@]2(O)C1=O)C4(C)C
- T. gondii = -3

The list itself, from the first entry:
> OC(c1ccccc1)(c1ccccc1)C1CCNCC1
- T. gondii = 36
> CC1=C[C@H]2[C@]3(O)[C@H](C)[C@@H](O)[C@@]4(O)[C@H]([C@@H]3C=C(CO)C[C@]2(O)C1=O)C4(C)C
- T. gondii = -3
> CNC(=O)Oc1ccccc1OC(C)C
- T. gondii = 13
> C[C@]12CC[C@H](OC3OC(O)C(O)C(O)C3O)C=C1CCC1C2CC[C@]2(C)[C@@H](c3ccc(=O)oc3)CC[C@]12O (some centres not stated)
- T. gondii = -84*
> O=C1CN=C(c2ccccc2Cl)c2cc([N+](=O)[O-])ccc2N1
- T. gondii = 14
> CC(C)(C)OC(=O)c1ncn2c1[C@@H]1CCCN1C(=O)c1c(Br)cccc1-2
- T. gondii = 7
> N#Cc1ccc(N2CCN(C(=O)COc3ccc4[nH]cc(CCN)c4c3)CC2)cc1
- T. gondii = -1
> CC(C)=CCCC1(C)C=Cc2c(O)c3c(c(CC=C(C)C)c2O1)OC12C(=CC4CC1C(C)(C)OC2(CC=C(C)C(=O)O)C4=O)C3=O (configuration not stated)
- T. gondii = -78*
> NC1CCN(c2cccnc2)C1 (configuration not stated)
- T. gondii = 11
> COc1cc2ccc(=O)oc2c2ccoc12
- T. gondii = -2
> CCCCCCCCCCCCCC(=O)O[C@@H]1[C@@H](C)[C@@]2(O)[C@@H](C=C(CO)C[C@]3(O)C(=O)C(C)=C[C@@H]23)[C@@H]2C(C)(C)[C@]12OC(C)=O
- T. gondii = -85*
> COc1ccc(CC2NCCc3cc(OC)c(OC)cc32)cc1OC (configuration not stated)
- T. gondii = 7
> Cc1cccc(Cc2cnc[nH]2)c1C
- T. gondii = 32
> CC(C)NCC(O)c1ccc(N)c(C#N)c1 (configuration not stated)
- T. gondii = -5&12
> CC(C)(C)c1o[nH]c(=O)c1CC(N)C(=O)O (configuration not stated)
- T. gondii = -80*!

> NCCc1c[nH]c2ccc(O)cc12
- T. gondii = 17
> CN(C)C(=O)Oc1cc(OC(=O)N(C)C)cc(C(O)CNC(C)(C)C)c1 (configuration not stated)
- T. gondii = 25&6
> O=c1cccc2n1C[C@H]1CNCC2C1
- T. gondii = 5
> c1ccc(CCCN2CCN(CCOC(c3ccccc3)c3ccccc3)CC2)cc1
- T. gondii = -2&-51
> CC(C)=CC1C(C(=O)OCc2cccc(Oc3ccccc3)c2)C1(C)C (configuration not stated)
- T. gondii = 3&16
> N[C@@H](Cc1ccc(O)cc1)C(=O)NCC(=O)NCC(=O)O
- T. gondii = -5
> CC(=O)O[C@H]1C[C@@H](OC(C)=O)C(C)(C)C2C[C@@H](OC(C)=O)[C@]3(C)C(CC[C@@]4(C)[C@H](c5ccoc5)C(=O)[C@H]5O[C@]543)[C@]21C (some centres not stated)
- T. gondii = 11
> CN1C[C@@H](NS(=O)(=O)N(C)C)C[C@@H]2c3cccc4c3c(cn4C)C[C@H]21
- T. gondii = 15
> O=C(O)COc1cc(Cl)c(Cl)cc1Cl
- T. gondii = -2
> CC(=O)[C@H]1CC[C@H]2[C@@H]3CC[C@H]4C[C@](C)(O)CC[C@]4(C)[C@H]3CC[C@]12C
- T. gondii = 4
> CCCC1CC2=CC(=O)CCC2(C)C2CCC3(C)C(CCC3(O)CCC(=O)O)C12 (configuration not stated)
- T. gondii = 13
> C[N+](C)(C)CC#CCN1CCCC1=O
- T. gondii = 9
> CC(C)(O)C(Cl)(Cl)Cl
- T. gondii = 17
> O=C(CCCN1CCC2(CC1)C(=O)N(Cc1cccc(F)c1)CN2c1ccccc1)c1ccc(F)cc1
- T. gondii = -82*!
> C[C@]12CC[C@H]3[C@@H](CC[C@@]45O[C@@H]4C(=O)C(C#N)C[C@]35C)[C@@H]1CC[C@@H]2O (some centres not stated)
- T. gondii = 7

> C[C@]12CCC(=O)C=C1CC[C@@H]1[C@@H]2C(=O)C[C@]2(C)C(=O)CC[C@@H]12
- T. gondii = 9
> N#CC(O[C@@H]1O[C@H](CO[C@@H]2O[C@H](CO)[C@@H](O)[C@H](O)[C@H]2O)[C@@H](O)[C@H](O)[C@H]1O)c1ccccc1 (some centres not stated)
- T. gondii = 19
> Cc1c(C(=O)c2cccc3ccccc23)c2cccc3c2n1[C@H](CN1CCOCC1)CO3
- T. gondii = -89*
> C[C@H]1CNCCc2ccc(Cl)cc21
- T. gondii = 7
> CC(=O)O[C@H]1C(=O)[C@@]2(C)C([C@H](OC(=O)c3ccccc3)[C@]3(O)C[C@H](O)C(C)=C1C3(C)C)[C@]1(OC(C)=O)CO[C@@H]1C[C@@H]2O (some centres not stated)
- T. gondii = -56
> C=C(C)[C@@H]1[C@H]2OC(=O)[C@H]1[C@]1(O)C[C@H]3O[C@]34C(=O)O[C@H]2[C@]14C
- T. gondii = 3
> CC(CO)NC(=O)C1C=C2c3cccc4[nH]cc(c34)C[C@H]2N(C)C1 (some centres not stated)
- T. gondii = -1&15
> O=C(N/N=C/c1ccc([N+](=O)[O-])o1)c1cc([N+](=O)[O-])cc([N+](=O)[O-])c1O
- T. gondii = 27
> Cn1cc(C(=O)C(=O)N[C@H]2CN3CCC2CC3)c2ccccc21
- T. gondii = -3&3
> C/C=C/c1ccc2c(c1)OCO2
- T. gondii = 11
> COc1cc([C@@H]2c3cc4c(c(O)c3C[C@H]3COC(=O)[C@@H]32)OCO4)cc(OC)c1OC
- T. gondii = -72*
> Fc1ccc(C(OCCN2CCN(CCCc3ccccc3)CC2)c2ccc(F)cc2)cc1
- T. gondii = 6&-67
> Cc1[nH]c2ccc(Cl)cc2c1C1=CCNCC1
- T. gondii = 11&9
> COc1cc2c(cc1O)C(CCc1ccc(Cl)cc1)N(C)CC2 (configuration not stated)
- T. gondii = -2&-1
> CC(C)C1(NC(=O)C2CC3c4cccc5[nH]cc(c45)CC3N(C)C2)OC2(O)C3CCCN3C(=O)C(Cc3ccccc3)N2C1=O (configuration not stated)
- T. gondii = -21

> CC1(C)C(=O)[C@@H]2O[C@@H]2[C@@]2(C)C1C[C@@H](O)[C@]1(C)C2CC[C@@]2(C)[C@H](c3ccoc3)OC(=O)C3OC321 (some centres not stated)
- T. gondii = 20
> CO[C@@H]1C(O)[C@H](O[C@H]2CC[C@@]3(C=O)[C@H](CC[C@@H]4[C@@H]3CC[C@]3(C)[C@@H](C5=CC(=O)OC5)CC[C@]43O)C2)OC(C)[C@@H]1O (some centres not stated)
- T. gondii = -74*
> Cc1[nH]c2ccc(O)cc2c1CCN
- T. gondii = -6&2
> O=C(NCC1CCOCC1)c1cnc(Nc2ccc(Cl)cc2Cl)nc1C(F)(F)F
- T. gondii = -53
> CCN(CC)C(=O)c1ccc(C2=CC3(CCNCC3)Oc3cccc(O)c32)cc1
- T. gondii = 10
> CCC1(CC)C(=O)C=CNC1=O
- T. gondii = 4&5
> C[N+]12CC[C@@]34c5ccccc5N5C(=O)CC6OCC=C(C1)[C@H](CC32)[C@@H]6C54 (some centres not stated)
- T. gondii = 10
> COc1cc2occc2c2oc(=O)ccc12
- T. gondii = -1
> NCC(O)c1ccc(O)cc1 (configuration not stated)
- T. gondii = 6
> CCC1/C=C/C=C/C[C@H](C)[C@@H](O)[C@](C)(O)C(=O)[C@@H](C)[C@H](O)[C@@H](C)C(=O)[C@H](C)[C@@H](O)[C@H](C)/C=C/C(=O)OC2[C@@H](C)C(CC1)OC1(CC[C@@H](C)C(C[C@H](C)O)O1)[C@@H]2C (some centres not stated)
- T. gondii = -89*
> Clc1ccc(C2=CCCC3CCC2N3)cn1 (configuration not stated)
- T. gondii = -82*!
> CC(C)CCCC1(C)C=Cc2c(O)c3c(c(CCC(C)C)c2O1)OC12C(CC4CC1C(C)(C)OC2(CCC(C)C(=O)O)C4O)C3=O (configuration not stated)
- T. gondii = -3
> COC1C(O)CC(OC2C(O)CC(OC3C(O)CC(OC4CCC5(C)C(CCC6[C@@H]5CC(O)C5(C)C(C7=CC(=O)OC7)CCC65O)C4)OC3C)OC2C)OC1C (some centres not stated)
- T. gondii = -82*
> CN1C[C@H](CNC(=O)OCc2ccccc2)C[C@@H]2c3cccc4c3c(cn4C)C[C@H]21
- T. gondii = 21
> C(=C\c1ccccc1)/CN1CCN(CCOC(c2ccccc2)c2ccccc2)CC1
- T. gondii = -5&-27&-4

Compounds from the list above that have an aryl methoxy group:
> COc1cc2ccc(=O)oc2c2ccoc12
- T. gondii = -2
> COc1ccc(CC2NCCc3cc(OC)c(OC)cc32)cc1OC (configuration not stated)
- T. gondii = 7
> COc1cc([C@@H]2c3cc4c(c(O)c3C[C@H]3COC(=O)[C@@H]32)OCO4)cc(OC)c1OC
- T. gondii = -72*
> COc1cc2c(cc1O)C(CCc1ccc(Cl)cc1)N(C)CC2 (configuration not stated)
- T. gondii = -2&-1
> COc1cc2occc2c2oc(=O)ccc12
- T. gondii = -1

Going on with the list.
compound,T. gondii
OC12C3C4CC5C6C4C1C6C(C53)N2CCc1cccc(F)c1 (configuration not stated),7&19
Cc1c2ccncc2c(C)c2c1[nH]c1ccccc12,-83*
CCOc1cncc(/C=C/CCNC)c1,11&0
C/C(=C\c1csc(C)n1)[C@H]1C[C@@H]2O[C@]2(C)CCC[C@H](C)[C@H](O)[C@@H](C)C(=O)C(C)(C)[C@@H](O)CC(=O)O1,-67
CNc1ccccc1C(=O)O,-1
C=C(C)[C@@H]1CCC(C)=C[C@H]1c1c(OC)cc(C)cc1OC,3&13
O=C(O)CCCCCCNC1c2ccccc2CCc2ccccc21,31
CN1CCN(c2ccc3ccccc3n2)CC1,-1
C=C1CC2C(CC[C@]3(C)C(=O)CCC23)[C@@]2(C)C=CC(=O)C=C12 (some centres not stated),11
CC(=O)C1CCC2C3CCC4C[C@H](O)CCC4(C)C3C[C@H](O)C12C (some centres not stated),4
COc1ccccc1N1CCNCC1,10
CCN1C[C@]2(COC(=O)c3ccccc3N3C(=O)C[C@H](C)C3=O)CC[C@H](OC)[C@@]34[C@@H]5C[C@H]6[C@H](OC)[C@@H]5[C@](O)(C[C@@H]6OC)[C@@](O)([C@@H](OC)[C@H]23)[C@@H]14,7
CCC1(CC)C(=O)NC(=O)NC1=O,7&-4
COC(=O)N1CCN(C(=O)Cc2ccc(Cl)c(Cl)c2)C(CN2CCCC2)C1 (configuration not stated),7
CC[C@H]1C2CC3[C@@H]4N(C)c5ccccc5[C@]45C[C@@H](C2C5O)N3[C@@H]1O (some centres not stated),3&1
CC(=O)O[C@@H]1CC2C(C)(C)C(=O)C=C[C@]2(C)C2CC[C@]3(C)C(=CC(=O)O[C@H]3c3ccoc3)[C@@]21C (some centres not stated),-84*
CC(C)(C)NCC(O)c1cc(Cl)c(N)c(Cl)c1 (configuration not stated),6
CC1(C)C2CC(=O)[C@]3(C)C(CC[C@@]4(C)[C@H](c5ccoc5)OC(=O)[C@H]5O[C@]543)[C@@]2(C)C(=O)C[C@H]1O (some centres not stated),-1
C[C@]12CCC3c4ccc(OC(=O)N(CCCl)CCCl)cc4CCC3C1CC[C@@H]2O (some centres not stated),-52
N#CC(C#N)=Cc1cc(O)c(O)c([N+](=O)[O-])c1,-6
Oc1c(I)cc(I)cc1I,4
CC(C)=CCCN1CCC(NC(=O)[C@](O)(c2ccccc2)C2CCCC2)CC1,2
Cc1ccc2c(c1)Cc1c(C(=O)NN3CCCCC3)nn(-c3ccc(Cl)cc3Cl)c1-2,-71*!
Oc1ccc2c3c1OC1c4c(c5ccccc5n4Cc4ccccc4)CC4(O)C(C2)N(CC2CC2)CCC314 (configuration not stated),-1
c1ccc(C2(c3ccccc3)CC2C2=NCCN2)cc1 (configuration not stated),7

Grouped by structure: the entries above containing sulfur (2)
compound,T. gondii
CN1C[C@@H](NS(=O)(=O)N(C)C)C[C@@H]2c3cccc4c3c(cn4C)C[C@H]21,15
C/C(=C\c1csc(C)n1)[C@H]1C[C@@H]2O[C@]2(C)CCC[C@H](C)[C@H](O)[C@@H](C)C(=O)C(C)(C)[C@@H](O)CC(=O)O1,-67

Remaining list, next part:
compound,T. gondii
CC(C)(C)CC(C)(C)c1ccc(O)cc1,6
CC(C)(C)NCC(O)COc1cccc2[nH]c(C#N)cc12 (configuration not stated),-75*
COc1cc([C@@H]2c3cc4c(cc3[C@@H](O)C3COC(=O)C32)OCO4)cc(OC)c1O (some centres not stated),-8
C=CCN1CC[C@]23c4c5ccc(O)c4O[C@H]2/C(=N/NC(=O)c2ccccc2)CC[C@@]3(O)[C@H]1C5,9
C=C(C)C1Cc2c(ccc3c(=O)c4c(oc23)COc2cc(OC)c(OC)cc2-4)O1 (configuration not stated),-1
C[C@H]1OC(O[C@H]2[C@@H](O)CC(O[C@H]3[C@@H](O)C[C@H](O[C@H]4CC[C@]5(C)C6CC[C@]7(C)[C@@H](C8=CC(=O)OC8)[C@@H](O)C[C@]7(O)[C@@H]6CC[C@@H]5C4)O[C@@H]3C)O[C@@H]2C)C[C@H](O)C1O (some centres not stated),-71*
CN1CCc2cc(Cl)c(O)cc2[C@H]2c3ccccc3CC[C@@H]21,-5
COc1cc2c(cc1OC)[C@@]13CCN4CC5=CCOC6CC(=O)N2C1[C@H]6[C@H]5C[C@H]43 (some centres not stated),-4
CC(C)=CC1C(C(=O)OCc2coc(Cc3ccccc3)c2)C1(C)C (configuration not stated),19
C=C(C)c1cc2cc(C(C)=O)c(O)cc2o1,59
N#C/C(=C\c1ccc(O)cc1)C(=O)O,16
CCCN1CCC[C@@H]2Cc3nc(N)ncc3C[C@H]21,10&-3
Cc1ncsc1CCCl,9&13
Cc1ccccc1-n1c(CF)nc2ccc(N)cc2c1=O,12
O=C(O)c1ccccc1-c1c2cc(Br)c(=O)cc-2oc2[c]([Hg])c(O)c(Br)cc12,15

Screening data deposited in PubChem by Broad Institute.
